Screening data: PubChem BioAssay, several laboratories
Beta2AR agonist = agonists of human beta-2 adrenergic receptor inducing internalization | P07550 | Am2.2-beta2AR cells, FAP receptor internalization, flow cytometry; reference of the scale not given here | response, % (concentration not given with the values) | hit rate 0.43% among 340,000;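 active = response above a set limit, near 3 SD of response in nonfluorescent compounds, cut at about 42% in these data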;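 note: stock transfer was 100 nL into about 11 µL; a reference agonist was the positive control; negative values mostly stem from fluorescent compounds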
Target sequence (P07550 whole entry, looked up): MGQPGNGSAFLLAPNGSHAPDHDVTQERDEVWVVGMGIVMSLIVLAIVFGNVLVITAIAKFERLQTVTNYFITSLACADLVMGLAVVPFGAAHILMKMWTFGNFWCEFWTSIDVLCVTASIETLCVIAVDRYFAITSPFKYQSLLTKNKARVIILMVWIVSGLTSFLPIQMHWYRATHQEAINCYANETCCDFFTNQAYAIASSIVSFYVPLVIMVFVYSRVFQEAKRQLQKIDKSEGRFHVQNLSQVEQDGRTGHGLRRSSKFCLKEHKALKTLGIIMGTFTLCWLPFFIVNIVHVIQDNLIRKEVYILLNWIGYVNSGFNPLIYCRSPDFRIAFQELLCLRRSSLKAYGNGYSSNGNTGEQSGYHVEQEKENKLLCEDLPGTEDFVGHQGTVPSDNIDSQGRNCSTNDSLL
FGF22 binding = shifts melting point of recombinant human FGF22; calls only at 9.99 µM; hit rate 1.5% among 340,000; Q9HCT0; recombinant FGF22 thermal shift, SYPRO orange fluorescence; percent of sucrose octasulfate shift, DMSO zero;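 active = melting point raised past a set limit in the mean and every replicate; three in four hits are not shown here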
Target sequence (Q9HCT0 whole entry, looked up): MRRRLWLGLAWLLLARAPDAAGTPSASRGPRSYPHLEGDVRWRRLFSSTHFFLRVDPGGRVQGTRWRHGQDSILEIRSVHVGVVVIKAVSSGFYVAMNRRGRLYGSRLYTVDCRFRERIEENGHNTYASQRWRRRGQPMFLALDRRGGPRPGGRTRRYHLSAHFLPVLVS
HNF4A DNA FP = change in binding of human HNF4 alpha to DNA. P41235. HNF4a-FITC DNA binding, fluorescence polarization, 1 h. activity change, % at 10 µM. hit rate 0.3% among 360,000; in the data active = activity change above about 30%, passing the limit was not always enough;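 note: controls were the assay level and a saturating level of protein; the project sought stronger binding though the title names inhibitors; some compounds called inactive have numbers as strong as hits; positive values seem to mean higher polarization but the record does not say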
ALR H2O2 inh = blocks human ALR sulfhydryl oxidase activity; P55789; purified ALR, DTT oxidation, H2O2 HRP-luminol luminescence; inhibition, % (no concentration beside the values); hit rate 3.8% among 290,000; AID 485317;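 active = mean and each replicate at 75% or more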;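 note: stock transfer was 7.5 nL into about 7.5 µL; 0% = neutral wells and 100% = wells with inactivated enzyme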
Target sequence (P55789 whole entry, looked up): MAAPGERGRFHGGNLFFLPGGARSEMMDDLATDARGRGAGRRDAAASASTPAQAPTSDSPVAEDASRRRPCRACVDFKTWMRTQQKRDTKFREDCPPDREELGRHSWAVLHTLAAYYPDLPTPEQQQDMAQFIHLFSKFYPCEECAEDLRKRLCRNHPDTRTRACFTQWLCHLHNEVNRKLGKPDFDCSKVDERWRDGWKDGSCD
UCH37 DUB inh = inhibitors of human deubiquitinating enzyme UCH37 | Q9Y5K5 | hit rate 0.33% among 330,000 | inhibition, % (concentration not given with the values) | purified proteasome/UCH37, Ub-AMC cleavage fluorescence | AID 588478;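 active = mean of two replicates above 20%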;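 note: 0% = compound-free wells with enzyme and 100% = wells lacking proteasome; stock transfer was 100 nL into about 20 µL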
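Signal – fluorescence, ex 355 nm, em 460 nm · System – Proteasome-bound UCH37 · Input – 0.15 nM proteasome as dispensed · Timing – 30 min preincubation with enzyme, 25 min cleavage at room temperature · Read-out basis – percent inhibition of cleavage signal versus uninhibited and no-proteasome wells · Medium – Tris-HCl pH 7.4 with ATP-MgCl2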
E coli growth = E. coli growth inhibition | Escherichia coli growth, OD600, 23 h; active compounds read low | OD600 absorbance (test concentration not listed) | hit rate 0.21% among 330,000;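 active = OD600 absorbance below the run mean of sample wells minus 3.6 SD, in any replicate, cut at about 0.56 in these data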;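 note: stock transfer was 300 nL into about 60 µL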
LANA-H2A inh = blocks KSHV LANA binding to histone H2A/H2B. Q9QR71. AID 2629. inhibition, % (test concentration not listed). hit rate 0.6% among 320,000. cell-free LANA-H2A/H2B peptide, fluorescence polarization; in the data active = inhibition mostly above about 10%, no sharp cut-off; inactive = mostly below about 6.7%;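 note: stock transfer was 7.5 nL into about 10 µL; 0% = median of vehicle wells and 100% = median of positive control wells; one replicate is shown; the record names a cut of 25% in any replicate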
Active calls of the source: *; i = inactive; . = no result given. Some of the compounds tested. The share of hits here may be higher or lower than overall.

Values in the order: Beta2AR agonist	LANA-H2A inh	FGF22 binding	ALR H2O2 inh	E coli growth	HNF4A DNA FP	UCH37 DUB inh
1: CC(C)N(C(=O)CSc1nc2ccccc2n1Cc1ccccc1)C(C)C
→ 0	0.1	.	.	0.75	-3.3	2.1
2: Cc1ccc2c(c1)N(CC(=O)NC(C)CCc1ccccc1)C(=O)c1cccnc1O2 (stereo unspecified)
→ -5	1.2	.	13	0.72	-0.5	3.6
3: CC1(C)Cc2nc(N)c(C(=O)NCCO)cc2CO1
→ 4	1.7	.	-1	0.72	1.2	-233
4: c1coc(-c2nc(-c3ccncc3)no2)c1
→ 1	-3.0	.	30	0.7	0.8	4.8
5: CC(C)CCOCC(=O)Oc1ccccc1C(=O)O
→ 0	3.9	.	-16	0.72	-0.6	-1.1
6: Cc1ccc(-n2c(C(C)n3nc(C)c([N+](=O)[O-])c3C)n[nH]c2=S)cc1 (stereo unspecified)
→ 2	3.0	.	39	0.73	-1.1	-0.8
7: Cc1ccc(N(CC(=O)NCC2CCCO2)S(C)(=O)=O)cc1Cl (stereo unspecified)
→ 1	-1.6	.	-2	0.62	1.0	0.5
8: C=C1CCN(C(C)C(=O)O)S(=O)(=O)c2ccccc21 (stereo unspecified)
→ -2	-2.1	i	6	0.69	5.2	-0.5
9: CCC(C)c1ccc(NC(=O)c2ccco2)cc1 (stereo unspecified)
→ 0	-7.2	i	7	0.63	-1.5	0.6
10: COc1cc(C(C)=O)ccc1OCC(=O)N(CCC1=CCCCC1)c1c(N)n(Cc2ccccc2)c(=O)[nH]c1=O
→ -7	0.6	i	-6	0.67	-1.2	-3.0
11: Cc1ccc(S(=O)(=O)N2CCCC2C(=O)n2nc(C)cc2C)cc1 (stereo unspecified)
→ -1	.	i	.	0.67	-0.2	4.5
12: N#Cc1cc([N+](=O)[O-])ccc1Oc1cccc(/C=N/NC(=O)c2cccc(Cl)c2)c1
→ -8	1.2	.	-2	.	-0.9	.
13: Cc1cc(Br)c(NC(=O)COC(=O)C2CC2C)c(Br)c1 (stereo unspecified)
→ 6	-2.1	.	-62	0.69	0.4	3.7
14: O=C(COC(=O)c1ccc2ccccc2n1)c1ccc(F)cc1
→ 4	2.9	i	-1	0.71	1.7	2.6
15: CCC(SC1=NCCS1)C(=O)Nc1ccc(S(N)(=O)=O)cc1 (stereo unspecified)
→ -7	1.5	i	-7	0.69	-1.4	1.6
16: Nc1cccc(Oc2ccc3c(c2)C(=O)NC3=O)c1
→ -4	-2.6	i	0	0.69	-1.7	6.6
17: O=C(CSc1nnc(-c2ccc(Cl)cc2)n1-c1ccc(Cl)cc1)N/N=C/c1ccco1
→ -1	2.2	i	.	.	1.2	.
18: Cn1nc(C(C)(C)C)cc1NC(=O)Nc1ccc(F)cc1F
→ 15	1.0	i	-2	0.67	0.7	3.2
19: NNC(=O)CNc1cccc(Cl)c1
→ -2	-0.1	i	27	0.63	-0.4	1.1
20: C=CCN1C(=O)C(Cc2ccc(OCC)cc2)S/C1=N\N=C\c1cccs1 (stereo unspecified)
→ 7	1.8	.	1	.	3.1	.
21: CCOC(=O)Cc1csc(NC(=O)NC2(C(F)(F)F)Oc3ccccc3O2)n1
→ -2	-1.3	.	34	0.66	1.6	3.7
22: CCCc1cc(C(N)=O)c(NC(=O)c2ccco2)s1
→ -36	-0.1	.	20	0.67	4.2	-75
23: CCC(=O)Nc1ccc(C(=O)Cn2ncc(Cl)c(Cl)c2=O)cc1
→ 9	2.9	i	-17	.	-5.0	.
24: Cc1ccc(C(=O)Nc2ccc(C(=O)N3CCCCC3)cc2)cc1
→ 2	-0.4	i	0	0.66	3.1	4.1
25: O=C(Nc1ccc2oc(-c3ccccc3F)nc2c1)c1ccccc1F
→ 14	-2.8	i	0	0.71	-1.8	-17
26: COc1cc(OC)cc(C(=O)NC(=S)N2CCN(c3ccc(C(F)(F)F)cc3[N+](=O)[O-])CC2)c1
→ 2	5.9	.	4	0.73	-2.0	2.4
27: Cc1cc(NC(=O)CCC(=O)N(CCC(C)C)CC(=O)NCC2CCCO2)no1 (stereo unspecified)
→ -2	9.9	.	-12	0.63	3.0	1.7
28: COc1ccc(NC(=O)CSc2nncs2)cc1S(=O)(=O)N1CCCCC1
→ 1	-2.7	i	-5	0.7	2.3	-2.0
29: CC(C)C(=O)Nc1cccc(COc2ccccc2CN(Cc2ccccc2)C(=O)OC(C)(C)C)c1
→ 5	.	i	.	.	2.5	.
30: COc1ccccc1N1CCN(C(c2ccccc2Cl)c2nnnn2C(C)(C)C)CC1 (stereo unspecified)
→ 8	-0.4	.	-11	0.74	-4.4	3.9

Next part
Values in the order: Beta2AR agonist	LANA-H2A inh	FGF22 binding	ALR H2O2 inh	E coli growth	HNF4A DNA FP	UCH37 DUB inh
31: CCCn1c(=S)[nH]c2cc(C(=O)N3CCN(c4ccccc4OC)CC3)ccc2c1=O
→ 0	-2.6	.	-10	0.67	-1.3	1.5
32: Cc1ccc(Cn2nnc3c(=O)[nH]c(C4CCN(C(=O)Cc5cccs5)CC4)nc32)cc1
→ -3	-4.4	i	-2	0.7	-1.8	7.2
33: O=Cc1nccc2ccccc12
→ 61*	.	i	.	.	-18	.
34: COc1ccc(NC(=O)C/C(C)=N/NC(=O)c2cccs2)c([N+](=O)[O-])c1
→ -3	-0.6	i	-1	.	-2.8	.
35: COc1cccc(N2CCN(c3c(C#N)c(C(F)(F)F)nn3C)CC2)c1
→ 3	-1.0	.	32	0.68	0.0	-0.3
36: COc1ccc2oc(C(=O)NC3CCCCC3)c(C)c2c1
→ 5	-5.9	i	4	0.74	1.1	-6.9
37: Cc1ccccc1NS(=O)(=O)c1cccc2nsnc12
→ -4	1.8	i	-22	0.66	3.4	3.0
38: CCOc1ccc2[nH]cc(C(=O)NCc3ccc(F)cc3)c(=O)c2c1
→ 7	2.6	i	13	0.64	-1.3	1.2
39: COC(=O)[C@H](C)NC(=O)Nc1ccc(Oc2ccccc2)cc1
→ -18	6.7	.	3	0.58	1.7	1.5
40: COc1ccc(CN2CCN(CC3CC3)CC2CCO)c(C)c1C (stereo unspecified)
→ 23	5.4	i	-3	0.69	1.1	3.5
41: COc1ccc(OC)c(Nc2nc(NCc3ccco3)c3ccccc3n2)c1
→ 7	-2.9	i	-9	0.66	1.4	-44
42: COc1ccc(C2COC(=O)C2=N)c(NC(=O)c2ccccc2)c1 (stereo unspecified)
→ 2	-0.8	.	3	.	-5.1	0.4
43: COc1cccc2c1OC1(C)CC2NC(=O)N1c1cccc(C(=O)N2CCN(c3ccccn3)CC2)c1 (stereo unspecified)
→ 6	1.3	.	0	0.79	0.7	1.1
44: COC(=O)CSc1nc2ncc(Cl)cc2[nH]1
→ 3	5.8	.	-1	0.76	2.0	5.3
45: CCOC(=O)C1=C(C)N(C)C(C)=C(C(=O)OCC)C1c1ccc(Cl)cc1
→ 7	0.0	i	-2	0.66	4.3	-0.9
46: CCCCCCCC(=O)N/N=C(/C)c1c(O)cc(C)oc1=O
→ -13	-2.2	i	0	.	8.8	.
47: O=C(Nc1ccc(F)cc1)c1oc2ccccc2c1NC(=O)C1CCCC1
→ -7	0.1	i	-4	0.65	-3.4	1.5
48: Cc1nc(N)sc1C(=O)N/N=C/c1ccc([N+](=O)[O-])cc1
→ -9	1.8	i	-13	.	3.3	.
49: Cc1ccc(S(=O)(=O)N2CCC(C(=O)NNC(=O)c3ccccc3)CC2)cc1
→ 11	-2.2	i	1	0.72	-2.6	1.0
50: CN1CCN(NC(=S)Nc2ccccc2)CC1
→ 8	-1.6	i	-4	0.71	-2.2	5.1
51: COc1ccc(C)cc1S(=O)(=O)N(C)CC(=O)N1CCCCCC1
→ 1	-5.6	.	.	0.7	-0.7	2.8
52: Cc1occc1C(=O)N1CCN(S(C)(=O)=O)CC1
→ -1	-0.2	.	0	0.73	-2.3	0.1
53: Cc1cccc(C(=O)Nc2scc(-c3ccc(Br)cc3)c2C(=O)O)c1
→ -4	-4.3	i	-2	0.62	-2.4	-8.7
54: O=C(NCc1ccccc1)c1c[nH]c2cc3c(cc2c1=O)OCCO3
→ 4	-3.6	.	14	0.72	3.1	0.7
55: CC(NC(=O)CSc1nnc(-c2cc3cc(Cl)ccc3o2)n1C)c1ccccc1 (stereo unspecified)
→ -11	-1.0	.	.	0.72	1.4	1.9
56: N#CCCN(/N=C/c1cccnc1)C1=NS(=O)(=O)c2ccccc21
→ -13	0.0	i	-11	.	-0.6	.
57: N#Cc1ccsc1NC(=O)C1CCCN1S(=O)(=O)c1cccs1 (stereo unspecified)
→ 5	6.4	i	1	0.61	3.6	0.8
58: COc1ccc(C(=O)Nc2cc(C)nn2-c2nc3ccccc3[nH]2)c(OC)c1
→ 8	1.7	i	-16	0.69	-3.9	2.8
59: Nc1nc(SCC(=O)NCCCO)nc2sc3c(c12)CCC3
→ -11	2.7	.	4	0.67	1.6	0.1
60: O=[N+]([O-])c1ccc(O)c(CSc2nnnn2-c2ccccc2)c1
→ 10	1.6	i	.	0.62	-4.2	6.9

The listing continues:
Values in the order: Beta2AR agonist	LANA-H2A inh	FGF22 binding	ALR H2O2 inh	E coli growth	HNF4A DNA FP	UCH37 DUB inh
61: CCn1c(=N)n(CC(=O)c2cccc(OC)c2)c2ccccc21
→ -5	-2.9	.	4	0.75	-0.9	5.4
62: O=C(CN1CCOCC1)Nc1cc([N+](=O)[O-])ccc1Cl
→ -7	-1.8	i	-6	0.7	-4.5	4.5
63: CCOc1ccccc1C(=O)Nc1ccc(C(=O)c2ccccc2)cc1
→ -8	1.9	i	0	0.74	1.8	1.0
64: CCC1(c2ccccc2)NC(=O)N(Cc2cccc([N+](=O)[O-])c2)C1=O (stereo unspecified)
→ -2	-1.9	i	-5	0.7	-0.9	2.3
65: Cc1ccc(NC(=O)CSc2ccccc2NC(=O)c2ccccc2Cl)cc1Cl
→ 4	3.3	i	6	0.69	-2.3	1.6
66: CCOc1ccc(C(=O)Nc2nncs2)cc1OCC
→ 4	0.2	i	-4	0.66	-5.8	1.5
67: CCC(C)Nc1nc(N)c([N+](=O)[O-])c(NC2CCCCC2)n1 (stereo unspecified)
→ 24	-0.2	i	0	0.71	1.3	5.4
68: Cn1c(=O)c2c(nc(SCCN3CCCCC3)n2C)n(C)c1=O
→ -1	-0.5	.	-3	0.71	1.6	0.4
69: Cc1ccc(CNC(=O)C2CCN(S(=O)(=O)c3ccc4c(c3)OCCCO4)CC2)cc1
→ 7	.	.	.	0.67	0.7	1.4
70: Cc1ccccc1-c1nc2cc(Cl)ccc2c(=O)o1
→ -1	-0.8	i	0	0.67	-2.3	-1.5
71: COc1ccc(N2CCN(S(=O)(=O)c3cc4c(cc3C)N(C(C)=O)CCO4)CC2)cc1
→ 8	-0.2	i	37	0.7	-2.8	5.8
72: Cn1c(CNC(=O)OC(C)(C)C)n[nH]c1=S
→ -4	-1.5	i	15	0.7	4.4	0.5
73: COc1ccc(NC(=O)c2ccc(-c3ccccc3)cc2)cc1S(=O)(=O)N1CCOCC1
→ 0	-4.2	i	.	0.73	-1.1	-6.2
74: Cc1cccc(NC(=O)c2cc3c(n(-c4ccccc4)c2=O)CCCC3=O)n1
→ -6	.	.	.	0.68	-1.4	1.5
75: COc1ccc(C)cc1NC(=O)N1CCC(CO)(CC2CCCCO2)CC1 (stereo unspecified)
→ -6	.	.	.	0.71	0.7	1.9
76: CC(C)CNC(=S)N(CCCO)Cc1cc2cc3c(cc2[nH]c1=O)OCCO3
→ 8	5.8	i	-72	0.69	-3.4	-103
77: CC(Sc1ccccc1)C(=O)N(CCC#N)Cc1cccnc1 (stereo unspecified)
→ -5	2.8	i	.	0.68	2.0	4.0
78: CCCOc1c(OC)cccc1C1CC(=O)Nc2cc3c(cc21)OCCO3 (stereo unspecified)
→ -5	-0.6	.	-9	0.79	1.8	5.3
79: COc1cc(/C=C(\C#N)c2nc3ccccc3n2C)cc(OC)c1O
→ -4	-3.2	.	99*	0.67	2.8	4.2
80: c1ccc(C(c2ccccc2)N2CCN(c3ccc4ccccc4n3)CC2)cc1
→ 0	0.3	.	.	0.77	-2.1	-33
81: CCN(CC(=O)Nc1c(F)cccc1F)C(=O)c1ccc(-c2ccccc2)cc1
→ -1	-5.2	i	-12	0.7	1.6	-1.5
